From PubChem
PABP polyA inh: PABP poly(A) RNA binding inhibitors, primary screen, biochemical, fluorescence polarization, uHTS; Polyadenylate-binding protein 1 (Homo sapiens), P11940; inhibition, % at 35 µM; hit rate 1% among 290,000;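 active = 50% or more with normal probe brightness, or confirmed in later tests; inconclusive = above 50% with abnormal brightness, or retests that disagree; inactive = below 50% or failed in later tests; about a fifth of its hits are not listed in these tables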;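 also: calls also rest on retests at 20 µM and on dose response follow-up; controls were probe without protein and protein plus probe with vehicle; some compounds called inactive have numbers as strong as hits; many hits fall short of the cut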
Target sequence (P11940 whole entry, looked up): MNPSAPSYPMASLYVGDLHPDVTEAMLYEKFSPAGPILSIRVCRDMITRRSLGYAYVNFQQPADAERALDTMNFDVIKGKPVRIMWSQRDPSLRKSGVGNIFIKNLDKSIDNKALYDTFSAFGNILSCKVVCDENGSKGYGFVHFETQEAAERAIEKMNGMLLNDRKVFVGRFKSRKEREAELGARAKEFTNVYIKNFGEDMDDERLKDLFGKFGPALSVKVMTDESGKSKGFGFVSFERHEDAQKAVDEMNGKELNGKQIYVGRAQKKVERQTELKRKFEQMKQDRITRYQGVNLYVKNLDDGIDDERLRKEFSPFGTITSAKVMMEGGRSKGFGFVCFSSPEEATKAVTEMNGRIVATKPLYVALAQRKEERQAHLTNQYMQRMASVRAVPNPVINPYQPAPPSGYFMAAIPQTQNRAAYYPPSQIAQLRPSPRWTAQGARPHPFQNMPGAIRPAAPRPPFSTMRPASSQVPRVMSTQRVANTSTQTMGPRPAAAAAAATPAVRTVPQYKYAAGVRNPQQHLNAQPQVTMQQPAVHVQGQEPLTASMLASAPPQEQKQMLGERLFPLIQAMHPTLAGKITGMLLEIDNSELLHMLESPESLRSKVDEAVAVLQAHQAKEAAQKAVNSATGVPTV
UUG fidelity: modulators of yeast start codon fidelity, primary screen, whole organism, S. cerevisiae, single point, plate reader; S. cerevisiae UUG-firefly luciferase reporter, luminescence/redox ratio; activity score, % at 18.7 µM; hit rate 0.13% among 350,000; AID 602363, 2012;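 active = replicate mean at a twofold rise or more, about +100% in these data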;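 also: firefly luciferase made from a UUG start codon reports start codon fidelity; reporter light over untreated wells divided by growth signal over untreated wells; some hits fall short of that in this replicate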
CSC inhib: cancer stem cell viability inhibitors, primary screen, luminescence; cancer stem cell-like cells viability; hit rate 1.1% among 300,000; inhibition, % at 7.5 µM;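 active = mean at 75% or more and at least half the replicates too; inconclusive = mean and replicates disagree; tested in HMLE shEcad cells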;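 also: 0% = median of negative and 100% = median of positive control wells; the first replicate is given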
MT1-MMP act inh: blockers of MT1-MMP proenzyme processing, primary screen, HT1080 RFP-PRO-GFP cells, GFP/RFP fluorescence. Matrix metalloproteinase-14 (Homo sapiens), P50281. GFP/RFP ratio fluorescence, overnight; percent of plate control window, DMSO zero. GFP/RFP ratio change, % at 20 µM. hit rate 0.061% among 360,000;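 active = GFP/RFP ratio change of at least 30% with cell ATP level not reduced by more than half and red fluorescence within 50% of control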; also: strong numbers were not always called active
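Compound: 20 µM single dose, 1% DMSO / System: HT1080 RFP-PRO-GFP cells / Controls: DMSO and RFP-L50D-GFP cell wells / Read-out basis: GFP/RFP fluorescence ratio / Schedule: overnight compound exposure at 37 °C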
eIF4H inh: human eIF4H binding inhibitors, primary screen, translation initiation inhibitor project, biochemical, uHTS, fluorescence polarization; Eukaryotic translation initiation factor 4H (Homo sapiens), Q15056; eIF4H fluorescence polarization binding assay; inhibition, % at 35 µM; hit rate 0.94% among 290,000; AID 2012, 2009;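 active = 50% or more with normal probe brightness, or confirmed in later tests; inconclusive = above 50% with abnormal brightness, or retests that disagree; inactive = below 50% or failed in later tests; about a fifth of its hits are not listed in these tables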;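 also: calls also rest on retests at 20 µM and on dose response follow-up; 0% = protein and probe with vehicle and 100% = probe without protein; strong numbers were not always called active; many hits fall short of the cut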
Env fusion inh: inhibitors of HIV-1 Env-driven cell-cell fusion, primary screen, HeLa-JRFL effector, CEM21 target cells, luciferase | hit rate 1.1% among 360,000 | inhibition, % at 12.3 µM | AID 651610, 2012;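 active = mean replicate inhibition score of at least 50 and every replicate individually at or above 50; inconclusive = only one of the two criteria met; inactive = mean below 50 and not all replicates reaching 50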;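 also: 0% = plate neutral controls and 100% = maraviroc near 300 nM; one replicate is shown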
Rce1 inhib: yeast Rce1p protease inhibitors, primary screen, biochemical, fluorescence, cell-free homogeneous; calls only; hit rate 0.27% among 290,000; yeast membranes, quenched prenylated peptide cleavage fluorescence; CAAX prenyl protease 2 (Saccharomyces cerevisiae (strain ATCC 204508 / S288c)), Q03530;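 active = fall in fluorescence gain of 50% or more versus controls, with final raw signal at or below 3038400; inconclusive = same 50% fall but final raw signal above 3038400; inactive = fall in fluorescence gain under 50%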;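 also: plate controls were neutral control wells for no effect and wells lacking membranes for full effect; tested at 10 µM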
Target sequence (Q03530 whole entry, looked up): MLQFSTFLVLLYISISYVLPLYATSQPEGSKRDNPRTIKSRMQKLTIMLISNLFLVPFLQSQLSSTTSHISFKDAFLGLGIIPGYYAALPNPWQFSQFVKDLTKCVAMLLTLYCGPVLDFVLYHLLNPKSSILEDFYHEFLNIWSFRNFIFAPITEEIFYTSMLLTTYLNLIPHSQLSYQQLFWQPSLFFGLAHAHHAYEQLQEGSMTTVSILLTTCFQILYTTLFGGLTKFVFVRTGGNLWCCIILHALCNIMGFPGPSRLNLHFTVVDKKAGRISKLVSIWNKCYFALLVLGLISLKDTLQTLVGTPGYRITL
MT1-MMP act inh RFP: also measured in MT1-MMP act inh; calls as there; RFP signal change, %; measured here: RFP expression control read;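 0 = vehicle wells; hits needed this value within 50% of zero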
The depositor's hits bear a star; i = inactive; u = inconclusive; x = not tested or not shown. A portion of the library, so the mix of outcomes need not match the whole.

SMILES	PABP polyA inh	UUG fidelity	CSC inhib	MT1-MMP act inh	MT1-MMP act inh RFP	eIF4H inh	Env fusion inh	Rce1 inhib
O=C(COC(=O)c1ccc([N+](=O)[O-])o1)NC12CC3CC(CC(C3)C1)C2	x	2	-15	-5	-4	x	-10	x
CC(=O)c1ccc(N2CCN(C(=O)CCS(=O)(=O)c3ccc4c(c3)CCN4C(C)=O)CC2)cc1	2	-2	1	1	-4	5	5	i
O=C(N/N=C/c1ccco1)c1cc(-c2ccc3ccccc3c2)n[nH]1	4	-14	38	4	2	-7	x	i
Cc1ccc(OCCn2c(=S)[nH]c3ccccc32)c(C(C)C)c1	8	-2	101*	-6	-22	-7	21	i
CC1=C(C(=O)OC(C)C)C(c2cccc(F)c2)N2C(=O)C(C)SC2=N1 (configuration not stated)	1	-16	-10	-27	-24	-4	x	i
CC(Sc1nn(-c2ccc(Cl)cc2)c(=S)s1)C(=O)NCC1CCCO1 (configuration not stated)	x	-12	-18	3	-6	x	22	i
O=C(Nc1ccc(Br)cn1)C1CCCN1S(=O)(=O)c1ccccc1 (configuration not stated)	-5	-3	-11	0	-3	-12	x	i
O=C1NCCCC1C(=O)Nc1cccc(C(F)(F)F)c1 (configuration not stated)	-2	-11	-18	1	-1	-8	x	i
O=C(Nc1nc(-c2ccccc2Cl)cs1)c1cccnc1	-4	-8	16	-9	-18	-19	-51	i
O=S1(=O)CC(N2CCN(CC3CC3)CC2)CN1Cc1ccc(F)cc1 (configuration not stated)	x	-6	x	3	1	x	2	x
CN(CC(=O)Nc1ccccc1Cl)C(=O)COC(=O)c1cccs1	x	-11	0	-1	2	x	3	x
COCCCNC(=O)CCCCCNS(=O)(=O)c1ccc(Br)cc1	-4	x	-6	1	2	-5	-7	i
CCN(CC)S(=O)(=O)c1cc(C(=O)Nc2nncs2)c(Cl)cc1Cl	2	-7	-8	6	5	2	-36	i
CC(C(=O)N1CCOCC1)N1C(=O)C2C3C=CC(C4CC34)C2C1=O (configuration not stated)	0	-13	-1	-1	1	8	-14	i
Cc1ccc(CN2C(=O)c3ccccc3Sc3ccc(C(=O)NCCN4CCOCC4)cc32)cc1	x	-6	54	0	-1	x	-4	i

An excerpt from above in order of SMILES length, ascending.
SMILES	PABP polyA inh	UUG fidelity	CSC inhib	MT1-MMP act inh	MT1-MMP act inh RFP	eIF4H inh	Env fusion inh	Rce1 inhib
COCCCNC(=O)CCCCCNS(=O)(=O)c1ccc(Br)cc1	-4	x	-6	1	2	-5	-7	i
CN(CC(=O)Nc1ccccc1Cl)C(=O)COC(=O)c1cccs1	x	-11	0	-1	2	x	3	x
O=S1(=O)CC(N2CCN(CC3CC3)CC2)CN1Cc1ccc(F)cc1 (configuration not stated)	x	-6	x	3	1	x	2	x
CCN(CC)S(=O)(=O)c1cc(C(=O)Nc2nncs2)c(Cl)cc1Cl	2	-7	-8	6	5	2	-36	i
CC1=C(C(=O)OC(C)C)C(c2cccc(F)c2)N2C(=O)C(C)SC2=N1 (configuration not stated)	1	-16	-10	-27	-24	-4	x	i
O=C(COC(=O)c1ccc([N+](=O)[O-])o1)NC12CC3CC(CC(C3)C1)C2	x	2	-15	-5	-4	x	-10	x

Further compounds:
SMILES	PABP polyA inh	UUG fidelity	CSC inhib	MT1-MMP act inh	MT1-MMP act inh RFP	eIF4H inh	Env fusion inh	Rce1 inhib
O=C(CNS(=O)(=O)c1c(Cl)cccc1Cl)OCc1csc(-c2ccccc2)n1	-3	x	-8	2	2	-6	0	i
CC(C)(C)OC(=O)N[C@H](C(=O)OC(C)(C)C)c1ccccc1	x	-6	-7	0	0	x	8	x
Cc1cc(C)c(S(=O)(=O)NCCc2ccncc2)c(C)c1	1	-14	0	0	0	-5	-19	i
CC(=O)Nc1ccc(S(=O)(=O)N(C)CC(=O)OCC(=O)Nc2cc(C)on2)cc1	x	-41	-17	-2	2	x	-95	x
CCCCOc1ccccc1NC(=O)c1scc2c1OCCO2	14	x	x	-9	-14	5	34	i
Cn1cc(S(=O)(=O)N2CCc3ccccc3C2)c(=O)n(C)c1=O	-13	-11	-25	12	10	1	8	i
CCOc1c(Cl)cc(Cl)cc1CNCCNCCO	-1	-11	-7	0	3	-2	x	i
C/C(=N\Nc1ccccn1)c1ccc(N2CCOCC2)cc1	-2	x	6	3	4	-1	-32	i
CCOC(=O)N1CCN(C(=O)c2ccc(NC(=O)CC)cc2)CC1	0	-9	3	-2	1	4	16	i
COc1cccc(-c2ccc3nccn3c2)c1	x	-16	x	-8	-8	x	-236	x
Nc1nc(Cl)nc(N(c2ccccc2)c2ccccc2)n1	4	x	-9	0	0	1	11	i
Cc1ccc(NS(=O)(=O)c2cccc3nsnc23)cc1C	-3	-15	-20	1	-2	2	-62	i
O=C(Nc1ccccc1C(=O)NCC1CCCO1)c1ccco1 (configuration not stated)	-6	-1	-23	3	-2	-10	-6	i
O=C(O)c1ccc(NS(=O)(=O)c2ccc(C(=O)Nc3ccccc3)cc2)cc1	8	-20	-3	-2	3	6	25	i
CCOc1ccc(OCCC(=O)NNC(=O)c2ccncc2)cc1	x	-19	-19	-2	4	x	x	x

Among those listed so far, 3 contain fluorine.
SMILES	PABP polyA inh	UUG fidelity	CSC inhib	MT1-MMP act inh	MT1-MMP act inh RFP	eIF4H inh	Env fusion inh	Rce1 inhib
CC1=C(C(=O)OC(C)C)C(c2cccc(F)c2)N2C(=O)C(C)SC2=N1 (configuration not stated)	1	-16	-10	-27	-24	-4	x	i
O=C1NCCCC1C(=O)Nc1cccc(C(F)(F)F)c1 (configuration not stated)	-2	-11	-18	1	-1	-8	x	i
O=S1(=O)CC(N2CCN(CC3CC3)CC2)CN1Cc1ccc(F)cc1 (configuration not stated)	x	-6	x	3	1	x	2	x

The results go on:
SMILES	PABP polyA inh	UUG fidelity	CSC inhib	MT1-MMP act inh	MT1-MMP act inh RFP	eIF4H inh	Env fusion inh	Rce1 inhib
CC1=CC(=C(C#N)C#N)C=C(C)N1Cc1ccc(Cl)cc1	-6	x	-3	5	6	1	20	i
O=C(COc1ccc2c(c1)oc(=O)c1ccccc12)NC(Cc1ccc(Cl)cc1)C(=O)O (configuration not stated)	10	-7	-2	-4	0	-8	x	i
COc1ccc2c(c1)OC[C@H]1[C@H]2N2C(=O)c3cc(OC)ccc3NC(=O)[C@@]2(C)[C@H]1c1ccccc1	x	-19	10	-7	-5	x	25	x
COC(=O)C1=CN(C)C=C(C(=O)OC)C1c1ccc(O)c(OC)c1	5	-2	-7	6	6	0	-64	i
Cc1ccc(/C=N/NC(=O)Cc2cccn2C)s1	7	x	-6	2	5	-3	-12	i
O=C(NNC(=S)Nc1ccc(Br)cc1Cl)c1ccncc1	4	-36	-10	-4	3	16	4	i
Cc1c(Cl)cccc1NC(=O)CCNC(=O)N1CC(=O)Nc2ccccc21	2	-13	-1	2	1	3	9	i
CC(=O)NC1C(=O)N=C(SCC(=O)NC2CCCCC2)NC1=O (configuration not stated)	13	-18	-15	-4	2	9	x	i
COC(=O)c1ccccc1NC(=O)c1cc([N+](=O)[O-])nn1Cc1ccccc1	-10	x	0	-4	-7	4	-23	x
Cc1cccc(OCC(=O)NC(=S)NNC(=O)c2ccncc2)c1	-1	-20	11	-6	-1	-12	0	i
c1ccc2c(c1)-c1ccccc1C2N1CCOCC1	x	-11	x	2	1	x	24	x
CCOc1ccc2nc(NC(=O)c3cnc(C)cn3)sc2c1	30	-7	5	4	-2	-1	x	i
CCOC(=O)c1cn[nH]c1N	-2	-14	6	2	-1	-8	-21	i
O=C1CC(N2CCN(c3ccccc3)CC2)C(=O)N1c1cccc(Br)c1 (configuration not stated)	-8	-15	-8	3	2	-13	7	i
Oc1ccc(C=Nc2cccc3ccccc23)c(O)c1	24	-13	8	-1	9	20	0	i

Some of the entries above in a different format:
Cc1ccc(/C=N/NC(=O)Cc2cccn2C)s1
  PABP polyA inh: 7 | UUG fidelity: x | CSC inhib: -6 | MT1-MMP act inh: 2 | MT1-MMP act inh RFP: 5 | eIF4H inh: -3 | Env fusion inh: -12 | Rce1 inhib: i

O=C(NNC(=S)Nc1ccc(Br)cc1Cl)c1ccncc1
  PABP polyA inh: 4 | UUG fidelity: -36 | CSC inhib: -10 | MT1-MMP act inh: -4 | MT1-MMP act inh RFP: 3 | eIF4H inh: 16 | Env fusion inh: 4 | Rce1 inhib: i

(next part)
SMILES	PABP polyA inh	UUG fidelity	CSC inhib	MT1-MMP act inh	MT1-MMP act inh RFP	eIF4H inh	Env fusion inh	Rce1 inhib
CCOC(=O)CNC(=O)c1ccc2[nH]c3ccccc3c2c1	13	x	0	7	2	0	-28	x
Cc1cccc(C)c1NC(=S)N(CCCN1CCCCC1)Cc1ccco1	-12	-19	2	-1	1	4	13	i
COc1cc(/C=C(\C#N)c2ccccn2)ccc1OCC(=O)Nc1ccc(Br)cc1	11	-2	u	-2	4	-4	2	i
Cc1ccc(Cl)cc1NC(=O)CN1CCN(S(=O)(=O)N2CCC(C)CC2)CC1	-6	-12	2	2	0	-6	-6	i
COc1ccccc1C(CC(=O)O)NS(=O)(=O)c1ccc2c(c1)N(C(C)=O)CC(C)O2 (configuration not stated)	5	-17	6	3	6	-11	2	i
O=C(O)c1nccnc1C(=O)Nc1ccccc1-c1ccccc1	14	-12	-4	2	2	-3	2	i
O=C(Cn1c(=O)oc2cc(S(=O)(=O)N3CCCC3)ccc21)Nc1ccccn1	x	-4	x	2	5	x	5	x
COC(=O)C(C)Sc1ccc2nnc(-c3ccccc3)n2n1 (configuration not stated)	3	x	5	-3	1	-9	-5	i
COc1ccc(C(=O)NNC(=O)c2ccc(S(=O)(=O)N3CC(C)OC(C)C3)cc2)cc1 (configuration not stated)	10	x	-3	-1	0	-6	18	i
COc1ccc(OC)c(NC(=O)CSCC(=O)O)c1	-1	-4	-10	-6	5	-2	-1	i
